Env fusion inh – HIV envelope-mediated fusion inhibition; HeLa-JRFL Env/CEM21 cell fusion, luciferase; inhibition, % at 12.3 µM; 1.1% of 360,000 active;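 active = mean replicate inhibition score of at least 50 and every replicate individually at or above 50; inconclusive = only one of the two criteria met; inactive = mean below 50 and not all replicates reaching 50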;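 also: 0% = plate neutral controls and 100% = maraviroc near 300 nM; one replicate is shown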
PABP FP inh – PABP-poly(A) binding inhibition | AID 2014 | PABP-poly(A) RNA binding, fluorescence polarization | P11940 | 1% of 290,000 active | inhibition, % at 35 µM;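 active = 50% or more with normal probe brightness, or confirmed in later tests; inconclusive = above 50% with abnormal brightness, or retests that disagree; inactive = below 50% or failed in later tests; about a fifth of its hits are not listed in these tables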;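 also: calls also rest on retests at 20 µM and on dose response follow-up; controls were probe without protein and protein plus probe with vehicle; some compounds called inactive have numbers as strong as hits; many hits fall short of the cut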
Target sequence (P11940 whole entry, looked up): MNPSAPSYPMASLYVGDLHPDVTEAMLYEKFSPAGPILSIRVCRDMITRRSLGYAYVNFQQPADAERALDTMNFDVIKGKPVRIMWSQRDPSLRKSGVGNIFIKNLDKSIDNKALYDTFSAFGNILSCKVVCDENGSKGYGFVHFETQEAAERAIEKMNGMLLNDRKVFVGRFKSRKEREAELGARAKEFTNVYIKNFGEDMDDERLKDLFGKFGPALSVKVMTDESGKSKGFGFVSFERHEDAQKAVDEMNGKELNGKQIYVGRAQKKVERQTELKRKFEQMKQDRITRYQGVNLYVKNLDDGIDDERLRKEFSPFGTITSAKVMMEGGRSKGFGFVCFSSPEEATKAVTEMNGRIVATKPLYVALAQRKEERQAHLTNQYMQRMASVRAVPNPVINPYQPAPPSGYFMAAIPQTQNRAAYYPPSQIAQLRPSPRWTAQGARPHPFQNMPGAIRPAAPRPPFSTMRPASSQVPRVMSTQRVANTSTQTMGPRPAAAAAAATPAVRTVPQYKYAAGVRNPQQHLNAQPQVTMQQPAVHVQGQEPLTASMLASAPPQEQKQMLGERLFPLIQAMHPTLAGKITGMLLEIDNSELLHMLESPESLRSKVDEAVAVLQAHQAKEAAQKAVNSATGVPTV
eIF4H FP inh – inhibitors of RNA binding by human eIF4H; Q15056; eIF4H fluorescence polarization binding assay; inhibition, % at 35 µM; 0.94% of 290,000 active; AID 2012;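 active = 50% or more with normal probe brightness, or confirmed in later tests; inconclusive = above 50% with abnormal brightness, or retests that disagree; inactive = below 50% or failed in later tests; about a fifth of its hits are not listed in these tables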;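 also: calls also rest on retests at 20 µM and on dose response follow-up; 0% = protein and probe with vehicle and 100% = probe without protein; strong numbers were not always called active; many hits fall short of the cut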
Rce1 inh – blocks yeast Ras-converting enzyme | yeast membranes, quenched prenylated peptide cleavage fluorescence | calls only | AID 2563 | 0.27% of 290,000 active | Q03530;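 active = fall in fluorescence gain of 50% or more versus controls, with final raw signal at or below 3038400; inconclusive = same 50% fall but final raw signal above 3038400; inactive = fall in fluorescence gain under 50%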;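 also: plate controls were neutral control wells for no effect and wells lacking membranes for full effect; tested at 10 µM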
CSC inhib – blocks cancer stem cells | inhibition, % at 7.5 µM | AID 2717 | cancer stem cell-like cells viability, luminescence | 1.1% of 300,000 active;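 active = mean at 75% or more and at least half the replicates too; inconclusive = mean and replicates disagree; tested in HMLE shEcad cells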;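 also: 0% = median of negative and 100% = median of positive control wells; the first replicate is given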
MT1-MMP act inh – inhibitors of human MT1-MMP activation. P50281. HT1080 RFP-PRO-GFP cells, GFP/RFP ratio fluorescence, overnight; percent of plate control window, DMSO zero. GFP/RFP ratio change, % at 20 µM. 0.061% of 360,000 active;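 active = GFP/RFP ratio change of at least 30% with cell ATP level not reduced by more than half and red fluorescence within 50% of control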; also: strong numbers were not always called active
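system = RFP-PRO-GFP reporter HT1080 cells | dosing = 20 µM single dose, 1% DMSO | timing = overnight cell settling, then overnight compound exposure, 37 °C, 5% CO2 | read-out basis = GFP/RFP fluorescence ratio | controls = DMSO and RFP-L50D-GFP cell wells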
Yeast UUG start – yeast start codon fidelity modulation; S. cerevisiae UUG-firefly luciferase reporter, luminescence/redox ratio; activity score, % at 18.7 µM; 0.13% of 350,000 active; AID 602363;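 active = replicate mean at a twofold rise or more, about +100% in these data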;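 also: firefly luciferase made from a UUG start codon reports start codon fidelity; reporter light over untreated wells divided by growth signal over untreated wells; some hits fall short of that in this replicate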
eIF4H FP inh retest – also measured in eIF4H FP inh; calls as there; inhibition, %; compound at 20 µM; confirmation average;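 mean of two retest wells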
PABP FP inh retest – further read-out of PABP FP inh, marked with its call; inhibition, %; compound at 20 µM; confirmation repeats;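 mean of two retest wells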
MT1-MMP act inh RFP – second read-out of MT1-MMP act inh, no call of its own (marks repeat the call); RFP signal change, %; measured here: RFP expression control read;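 0 = vehicle wells; hits needed this value within 50% of zero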
The depositor's hits bear a star; i = inactive; ? = inconclusive; . = not tested or not shown; & = joins results of further samples. Hits appear at their usual frequency, and some 2.9% of all compounds hit somewhere here.

SMILES	Env fusion inh	PABP FP inh	eIF4H FP inh	Rce1 inh	CSC inhib	MT1-MMP act inh	MT1-MMP act inh RFP	Yeast UUG start	others
O=C(OCc1nc2ccccc2s1)c1ccc(Br)s1	-11	-11	8	i	-4	-2	5	-24
CCCCCn1c(=O)[nH]c2cc(C(=O)N3CCN(c4ccccc4F)CC3)ccc2c1=O	19	-4	-11	.	28	2	-3	0
COc1ccc(S(=O)(=O)N2CCCCC2)cc1NC(=O)C1CC1(Cl)Cl (stereo not given)	19	.	.	.	.	-1	1	-7
COc1ccccc1CNC(=O)COc1ccc(S(=O)(=O)N2CCCC2)cc1	0	10	-4	i	-34	-1	1	1
COc1ccccc1CC(=O)NCc1nn(-c2ccccc2)nc1C	-2	-2	0	i	-9	-1	-4	.
Cc1cccc(S(=O)C(c2ccccc2)c2ccccc2)c1 (stereo not given)	23	.	.	.	.	-3	-5	-7
CCCCN1C(=O)/C(=C2/Sc3ccc(Cl)cc3N2CC)SC1=S	.	7	-1	i	-13	.	.	.
CCC(=O)Nc1nnc(S(=O)(=O)N2CCCc3ccccc32)s1	4	3	0	i	-12	-2	2	-28
Cc1nnc(NC(=O)c2nn(CC(C)C)c(=O)c3ccccc23)s1	-3	-6	6	i	-2	1	1	.
O=C(NC(=S)NNC(=O)c1cnccn1)c1ccc(Cl)cc1	-3	8	25	i	94*	11	-3	.
Cc1ccccc1NC(=O)CC1(c2ccc(N(C)C)cc2)C(=O)c2ccccc2C1=O	-16	-9	-4	i	4	7	1	5
COc1ccc(C)cc1-n1nnnc1SCC(=O)NC1CCS(=O)(=O)C1 (stereo not given)	-3	.	.	.	.	1	4	5
Cc1csc(NC(=O)c2c(-c3ccccc3)noc2C)n1	11	-5	-4	i	0	-4	-3	-13
O=C(CCN1C(=O)/C(=C\c2ccccc2Cl)SC1=S)Nc1cccnc1	-11	-9	-9	i	1	8	3	-14
CC(CCCC(C)(C)O)NCCO (stereo not given)	.	-1	-2	i	-11	1	1	-10
CC(C)NC(=O)Nc1ccc2c(c1)C(=O)N([C@@H](C)CO)C[C@@H](C)[C@@H](CN(C)S(=O)(=O)c1ccc(F)cc1)O2	-33	.	.	.	-8	-4	2	9&-18
CC(C)c1nc(CNC(=O)CC2C(=O)NCCN2Cc2ccccc2)cs1 (stereo not given)	-18	.	.	.	.	1	1	-9
COC(=O)C1CCN(c2ccc(C(N)=O)cc2[N+](=O)[O-])CC1	-3	0	-13	i	-1	3	-1	.
CCS(=O)(=O)N1CCC(NC(=O)c2cc(OC)cc(OC)c2)CC1	.	-10	-1	i	.	-1	1	2
O=C(Cc1ccccc1F)Nc1nc(-c2ccc(F)cc2)cs1	-15	0	-8	i	36	-2	-5	9
CNS(=O)(=O)c1ccc(N2CCCC2=O)c([N+](=O)[O-])c1	-19	3	-14	i	-10	1	1	.
CC(=O)c1cccc(N(CC(=O)NC2CCCCC2)C(=O)Cn2nnc(-c3ccccc3)n2)c1	6	3	8	i	-12	3	1	-5
O=C(CCN1C(=O)C2C3C=CC(C4CC34)C2C1=O)Oc1ccc(Br)cc1 (stereo not given)	11	0	-3	i	13	7	5	.
Cc1ccc(OCC(=O)Sc2ccc(C)cc2)cc1	.	-7	-1	i	7	-12	-6	-10
CC(C)C[C@@H](CN1CCC[C@@H]1CN1C(=S)NC[C@@H]1Cc1ccc(O)cc1)N1C[C@H](Cc2ccc(O)cc2)N(CC2CCCCCC2)C1=S	32	.	.	.	.	-2	-3	-15
Continuation.
SMILES	Env fusion inh	PABP FP inh	eIF4H FP inh	Rce1 inh	CSC inhib	MT1-MMP act inh	MT1-MMP act inh RFP	Yeast UUG start	others
O=C(Nc1ccc(C(O)(C(F)(F)F)C(F)(F)F)cc1)c1ccc(Cl)c([N+](=O)[O-])c1	12	-7	-10	i	87*	6	-6	8
CCCNC(=O)c1cc(C2CCCCN2C(=O)c2ccc3ccccc3c2)on1 (stereo not given)	-29	.	.	.	.	1	2	12
Cc1nn(-c2ccccc2)c(C)c1NC(=O)COC(=O)c1ccc(S(=O)(=O)C(F)F)cc1	-1	.	.	i	-9	0	0	16
CCOc1ccc(NC(=O)C2CSC(c3ccncc3)=N2)cc1 (stereo not given)	-13	-5	-4	i	-3	-3	-1	-11
CC[C@@H](CC1CCCCC1)C(=O)N(Cc1ccccc1)c1ccccc1	60*	.	.	.	41	2	-16	-7
CC(C)c1onc(C(=O)NCc2ccccn2)c1[N+](=O)[O-]	-2	-6	-1	i	-7	3	1	.
COc1cc(C(=O)N(CCc2ccccc2)C2CC3CCC(C2)N3C)cc(OC)c1OC (stereo not given)	.	-1	-6	i	2	-3	3	3
CCOc1ccc(Cc2c(Cl)nc(SC)nc2N(C)C)cc1	-45	-19	7	i	54	-7	-13	.
CCN(CC)c1ccc2c(c1)OC(N)=C(C#N)C2c1cccnc1 (stereo not given)	-226	?	?	i	9	-147	31	-14
COc1cc(-c2nc3n(n2)C(c2cccc(OC)c2OC)C2=C(CCCC2=O)N3)cc(OC)c1OC (stereo not given)	-43	-16	-2	i	7	5	-3	-11
Nc1ccc(OCc2ccco2)cc1	1	9	-9	i	10	5	4	-22
CCCn1c(SCC(=O)/C(C#N)=C(\C)N)n[nH]c1=O	2	-7	-5	i	.	4	1	.
Cc1cc(C)cc(NC(=O)C2(c3ccccc3)CC2(Cl)Cl)c1 (stereo not given)	-24	11	0	i	-3	-29	-33	-18
CCCN(CCC)S(=O)(=O)c1ccc(N2CCCC2=O)c([N+](=O)[O-])c1	-9	-1	-2	i	14	-2	3	-1
CCN(CC)CCNC(=S)Nc1ccc2nc3n(c(=O)c2c1)CCCCC3	-14	-2	-1	i	-5	-4	0	.
O=C(O)c1ccc(NC(CSCc2cccc(F)c2)C(=O)O)c([N+](=O)[O-])c1 (stereo not given)	.	6	8	i	-2	9	-1	-14
CC1CN(CN2C(=O)c3ccccc3C2=O)CC(C)O1 (stereo not given)	-24	-1	0	.	-1	3	2	15
COc1ccccc1OCC(=O)N1CCNC1=O	0	16	3	i	-13	2	7	-4
O=C(NCCSC1CCCCC1)c1ccccc1	-13	-4	4	i	5	2	2	.
Cc1cc(CNC(=O)C2(C(F)(F)F)CC(CCCO)CCCO2)nn1C (stereo not given)	-19	.	.	i	6	3	4	-5
COc1ccc(N2C(=O)CCC(C(=O)O)C2c2ccc(OC)c(OC)c2)cc1 (stereo not given)	-85	-4	6	i	-1	3	7	-18
O=C(NC(=O)N1CCCCCC1)c1ccccc1	-4	-1	-1	i	-6	1	3	-15
CCOc1cc(/C=C(/C#N)c2ccc(F)cc2)ccc1OCc1ccc(C(=O)O)o1	.	2	2	i	-18	19	4	11
O=C(NCc1cccs1)c1ccc2sc(COCCO)nc2c1	-1	.	.	.	.	-1	2	-7
CCOC(=O)C1CCCN(C(=O)c2cc(-c3ccccc3)on2)C1 (stereo not given)	-11	-8	-9	i	.	-1	-2	-6

Already shown: two of the compounds above.
SMILES	Env fusion inh	PABP FP inh	eIF4H FP inh	Rce1 inh	CSC inhib	MT1-MMP act inh	MT1-MMP act inh RFP	Yeast UUG start	others
O=C(NCc1cccs1)c1ccc2sc(COCCO)nc2c1	-1	.	.	.	.	-1	2	-7
CCOC(=O)C1CCCN(C(=O)c2cc(-c3ccccc3)on2)C1 (stereo not given)	-11	-8	-9	i	.	-1	-2	-6

More records:
SMILES	Env fusion inh	PABP FP inh	eIF4H FP inh	Rce1 inh	CSC inhib	MT1-MMP act inh	MT1-MMP act inh RFP	Yeast UUG start	others
CN(CCC#N)C(=O)COC(=O)c1ccccc1C(=O)c1ccc(Cl)c([N+](=O)[O-])c1	-32	-15	-3	i	44	-18	-18	.
c1ccc(-c2onc(-c3ccco3)c2-c2ccc3[nH]ccc3c2)cc1	-1	-10	1	i	120*	-3	-11	-12
CSCCC(NC(=O)c1cncc(Br)c1)C(=O)O (stereo not given)	.	6	-3	i	-4	-2	1	-11
O=C(CS(=O)(=O)c1ccccc1)NCc1ccco1	7	8	6	i	-4	-4	1	.
COCC1CCN(Cc2cn[nH]c2-c2cc3ccccc3o2)C1 (stereo not given)	16	-10	-3	i	26	2	4	.
CCOC(=O)N1CCC(NC(=O)c2ccc(CS(=O)(=O)c3ccc(OC)cc3)o2)CC1	16	-4	-5	i	-9	.	.	-9
CC(=O)Nc1ccccc1C(=O)C(=O)Nc1ccc(C(=O)NCC2CCCO2)cc1 (stereo not given)	12	-5	7	i	8	1	2	6
CCc1[nH]c(=O)c(C#N)c2c1CSC(C)(C)C2	.	-3	-3	i	4	3	6	.
COc1ccc(N2CCN(C(=O)CN(c3cccc(OC)c3)S(=O)(=O)c3ccccc3)CC2)cc1	.	1	-9	i	1	0	0	5
CCn1cnc2c1c(=O)n(CC(=O)Nc1ccc(C(N)=O)cc1)c(=O)n2Cc1ccccc1	-9	-8	-8	i	7	-1	-1	-5
COc1cc(CN2C(=O)C(C)ON=C2c2ncccc2C)cc(OC)c1 (stereo not given)	-21	.	.	.	.	3	6	-27
O=C(N/N=C/c1cccc(O)c1)c1ccc(COc2cccc3cccnc23)cc1	-4	6	0	i	-3	5	6	.
C[C@@H]1CN([C@H](C)CO)S(=O)(=O)c2ccc(C#Cc3ccccc3)cc2O[C@H]1CN(C)C(=O)Nc1ccc2c(c1)OCO2	-24	.	.	.	.	-3	-12	-14&15&5
CCC(=O)Nc1cc(C(=O)O)ccc1Sc1ccccc1	-5	4	7	i	-7	2	4	.
CNC[C@H]1Oc2ccc(NC(=O)Nc3ccccc3)cc2CC(=O)N([C@H](C)CO)C[C@H]1C	-109	.	.	.	-12	-3	5	30&12
Cc1ccc(NC(=O)CN(C)C(=O)COc2ccc(Br)cc2)cc1	6	.	.	.	.	1	2	11
CC1=C(C(=O)OC(C)C)C(c2cccc([N+](=O)[O-])c2)n2c(cc(=O)[nH]c2=S)N1 (stereo not given)	.	-8	3	i	4	-4	0	-30
S=c1[nH]nc(-c2cccnc2)n1/N=C/c1cccs1	-69	0	-7	i	2	2	2	-20
CCc1cccc(CC)c1NC(=O)CN1CCN(S(=O)(=O)c2ccccc2)CC1	-11	2	-11	i	6	-4	0	-10
COc1ccc(S(=O)(=O)N[C@@H](CC(C)C)C(=O)O)cc1	.	0	-5	i	-7	3	-3	-20
O=C(COC(=O)c1cnccn1)c1ccccc1	-19	-6	4	i	.	4	-15	-1
O=C(Nc1nc(-c2ccc3c(c2)OCO3)cs1)C1COc2ccccc2O1 (stereo not given)	4	6	3	i	28	3	5	-18
CN1CCN(C(=O)c2ccc(S(=O)(=O)N(C)c3ccccc3)cc2)CC1	13	.	.	.	.	4	1	16
CC(=O)Nc1ccc(S(=O)(=O)NNC(=O)COc2ccc(C(C)(C)C)cc2)cc1	.	-5	5	i	-14	6	-3	-2
CC(CC(=O)O)C(=O)c1ccc(Cl)c([N+](=O)[O-])c1 (stereo not given)	4	19	-5	i	-15	-3	1	-7
O=C(Cn1c(=O)oc2ccccc21)N1CCN(c2ccccc2)CC1	.	9	2	i	.	-10	2	2
Cc1cc(C)c(-c2csc(NC(=O)CCCc3nc4ccccc4c(=O)[nH]3)n2)c(C)c1	?	.	.	i	10	-27	-29	-7
COc1ccccc1C(=O)NCC(C)(C)CN=C1NS(=O)(=O)c2ccccc21	16	4	-14	i	0	0	-1	9
O=C(COC(=O)c1ccccc1)NCc1ccco1	.	20*	76*	i	11	3	6	-17	eIF4H FP inh retest=94*;PABP FP inh retest=51*
Cc1onc(-c2ccccc2Cl)c1C(=O)N1CC(C)OC(C)C1 (stereo not given)	.	-5	0	i	-4	0	2	5

Compound activity (PubChem)
